# Bioassay records deposited in PubChem by several laboratories.
# Vif TR-FRET – HIV-1 Vif–A3G interaction blockers – biochemical, TR-FRET, GST-Vif 1-94, biotin-A3G peptide, dose response retest, primary screen (AID 1117319); inhibition, %, or IC50 in µM where a hit was titrated; 260,000 tested, 0.57% active; TR-FRET GST-Vif / biotin-A3G peptide binding; higher % means a stronger effect; test concentration not given here; strong numbers were not always called active;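 active = above the screen mean plus three standard deviations and confirmed in dose response; inconclusive = results disagree or hit not tested in dose response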;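 also: Vif residues 1-94 fused to GST binding biotinylated APOBEC3G peptide 110-148; 0% = full assay without inhibitor and 100% = GST in place of GST-Vif; retest series ran down from 100 µM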
# LANA-H2B inh – blocks KSHV LANA binding to histone H2A/H2B; cell-free LANA-H2A/H2B peptide, fluorescence polarization; 320,000 tested, 0.6% active; AID 2629; inhibition, % (test concentration not listed); Q9QR71; in the data active = inhibition mostly above about 10%, no sharp cut-off; inactive = mostly below about 6.7%;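 also: stock transfer was 7.5 nL into about 10 µL; 0% = median of vehicle wells and 100% = median of positive control wells; one replicate is shown; the record names a cut of 25% in any replicate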
# Bfl-1 A1 inh – inhibitors of the anti-apoptotic protein A1, read as caspase activation. MEF A1-2A-BIM cells, Caspase-Glo 3/7 luminescence, 3 h; percent of clofoctol response, vehicle zero. caspase activation, % (concentration not given with the values). 330,000 tested, 0.066% active. AID 2462;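 active = over half of replicate activation scores above 10%, or exactly half above 10 with the replicate mean above 10; inconclusive = replicate mean below 10 yet half the replicates above 10; inactive = over half of replicates below 10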;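 also: wells of about 30 µL received 50 nL stock; many hits fall short of the cut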
# RanGTP-Imp inh – disruptors of Ran-importin-beta complex formation – biochemical, FRET, CFP-Ran, YFP-importin-beta, homogeneous, primary screen; cell-free CFP-Ran/YFP-importin-beta FRET ratio; inhibition, % (test concentration not listed); 300,000 tested, 1.1% active;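 active = most replicates above 15%; inconclusive = exactly half above 15%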;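 also: 0% = DMSO wells and 100% = Ran loaded with GDP instead of GTP; wells of about 40 µL received 100 nL stock; the first replicate is given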
# Beta cell apopt – beta cell apoptosis inhibition; AID 435005; 300,000 tested, 0.8% active; INS-1E cytokine-induced death, ATP luminescence, 48 h; percent of positive-control rescue, neutral wells zero; protection from apoptosis, % (concentration not given with the values);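 active = all replicates at 75% or more, or half of them and the mean; inconclusive = half reach 75% but not the mean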;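 also: 0% = cytokine-treated negative control wells and 100% = positive control rescue; higher means more ATP so stronger rescue from cytokine killing; wells of about 40 µL received 100 nL stock; the first replicate is given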
# AF4-AF9 inh – inhibitors of human MLL-AF4/AF9 interaction; P42568; AlphaScreen, biotin-AF4 peptide binding to FLAG-AF9; inhibition, % at 10 µM; 350,000 tested, 0.47% active; AID 651704;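 active = every replicate reaching a set inhibition limit, whatever the replicate mean, cut at about 25% in these data; inconclusive = mean inhibition reaches that limit but some replicates miss it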;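 also: 0% = plate neutral control median and 100% = total signal loss; the record names both 10 and 1 µM as test concentration; the first replicate is given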
# Target sequence (P42568 whole entry, looked up): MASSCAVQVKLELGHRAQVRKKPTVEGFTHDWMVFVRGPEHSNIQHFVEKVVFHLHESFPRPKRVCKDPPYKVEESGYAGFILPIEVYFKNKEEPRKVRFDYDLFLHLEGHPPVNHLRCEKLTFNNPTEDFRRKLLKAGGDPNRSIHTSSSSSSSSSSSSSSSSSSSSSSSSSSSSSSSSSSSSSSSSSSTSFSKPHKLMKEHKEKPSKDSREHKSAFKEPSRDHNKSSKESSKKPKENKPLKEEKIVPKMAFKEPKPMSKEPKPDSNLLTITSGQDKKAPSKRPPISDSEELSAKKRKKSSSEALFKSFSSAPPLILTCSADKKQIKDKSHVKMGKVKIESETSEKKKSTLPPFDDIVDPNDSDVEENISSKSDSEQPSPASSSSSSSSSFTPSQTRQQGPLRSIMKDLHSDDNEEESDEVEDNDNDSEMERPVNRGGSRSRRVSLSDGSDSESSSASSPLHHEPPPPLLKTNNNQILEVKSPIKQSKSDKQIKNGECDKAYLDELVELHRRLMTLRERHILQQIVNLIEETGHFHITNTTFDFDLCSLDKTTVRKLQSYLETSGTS
# T cruzi inh – T. cruzi replication inhibition; T. cruzi beta-gal in NIH3T3, luminescence, 90 h; inhibition, % (concentration not given with the values); 300,000 tested, 1.4% active; AID 1885;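 active = mean inhibition across valid replicates above about 55%, limit read from the data; inconclusive = mean below that limit but half or more replicates reach it; inactive = mean below it, under half of replicates reach it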;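 also: signal also drops with host cell toxicity which is not excluded here; 0% = plate median of DMSO wells and 100% = zero luminescence signal; higher percent means less beta-gal luminescence so fewer parasites; stock transfer was 50 nL into about 50 µL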
# Calb FLC – C. albicans growth modulation with fluconazole; C. albicans CaCi-2 (fluconazole-resistant clinical isolate) + fluconazole, Alamar Blue growth, 48 h; 300,000 tested, 0.57% active; AID 1979; growth inhibition, % (test concentration not listed);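 active = most replicates above 75%; inconclusive = exactly half above 75%; inactive = most below 75%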;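 also: all wells also contain fluconazole at 8 µg/ml as a sub-toxic cotreatment; 0% = median of DMSO wells and 100% = median of geldanamycin control wells; wells of about 8 µL received 7.5 nL stock; the first replicate is given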
# Active calls of the source: *; ? = inconclusive; nt = no result given; & = joins results of further samples.
smiles,Vif TR-FRET,LANA-H2B inh,Bfl-1 A1 inh,RanGTP-Imp inh,Beta cell apopt,AF4-AF9 inh,T cruzi inh,Calb FLC
COc1ccccc1NC(=O)C(=O)NCc1ccncc1,-4%,-4.9,0.6,-3.5,3,-2.1,-9,-2
CN1CCN(C(c2cccnc2)c2ccc3cccnc3c2O)CC1 (stereo not drawn),?,4.1,-0.2,?,22,nt,28,89*
Cc1cc2c(cc1C)CSC(c1ccc(O)cc1)SC2,4%,-4.0,0.8,-1.5,-1,4.1,-13,8
CCOc1cc(C2CC(=O)NC(SCC)=C2C#N)ccc1O (stereo not drawn),?,2.3,0.2,?,-9,1.5,1,-5
COc1cccc(/C=N/N2CCN(C3c4ccccc4-c4ccccc43)CC2)c1O,-6%,1.4,0.4,-3.2,1,14,8,-8
Cc1ccc(S(=O)(=O)N(C)C)cc1-n1c(SCC(=O)Nc2ccc(F)cc2Cl)nc2ccccc2c1=O,?,-2.3,-0.1,-0.4,7,nt,27,-2
CC(=Nc1ccccc1)C1=C(O)COC1=O,8%,1.8,-0.6,-1.8,4,6.4,-13,-7
CC(C)(CN1CCN(C(c2ccccc2)c2ccccc2)CC1)NS(=O)(=O)c1ccccc1,2%,-2.3,0.4,1.6,15,5.9,62*,-1
O=C(O)CCn1nnc(-c2cccs2)n1,16%,2.4,0.1,0.4,-6,nt,-4,-21
COc1ccccc1N(C)S(=O)(=O)c1ccc(C(=O)Nc2nccs2)cc1,-4%,-0.7,2.2,nt,-6,4.2,nt,nt
O=C(CC(c1ccccc1)c1ccccc1)Nc1ccc(O)cc1,nt,-2.1,-0.4,-15,-3,4.4,-2,-4
O=C(N/N=C/c1ccc(-c2ccc(Br)cc2)o1)c1ccc2c(c1)OCO2,-8%,5.1,-0.4,4.4,4,-1.9,74*,7
c1ccc(-c2cc(-c3nc(-c4ccccn4)no3)c3ccccc3n2)cc1,-1%,-3.0,-0.4,-0.6,5,nt,-14,-3
O=C(C[C@H]1C/C=C\CC[C@H](Cc2ccc(F)cc2)C(=O)OC[C@@H]2CCCN2C1=O)N[C@H](CO)Cc1ccccc1,nt,2.0,0.8,nt,0,-0.3,nt,nt
CC(NS(C)(=O)=O)C(c1cccs1)N1CCN(C)CC1 (stereo not drawn),1%,-1.6,0.2,7.9,-3,nt,-5,20
O=C(c1ccco1)N1CCC(c2nc3ccccc3[nH]2)CC1,3%,2.6,0.7,4.0,-5,3.0,5,-2
CC(C)(C)N(Cc1cc2ccccc2[nH]c1=O)C(=O)C1CCCCC1,?,2.6,-0.6,2.1,-4,nt,-12,-14
COc1c(F)cccc1C1=CC(=O)C[C@H](c2ccc3c(c2)OCO3)C1,nt,2.7,-1.3,nt,10,0.8,nt,nt
CCC(NC(=O)NCc1ccc2c(c1)OCO2)(C(F)(F)F)C(F)(F)F,4%,-1.7,0.1,1.3,-3,nt,8,-31
Nc1cc(Cl)ccc1Nc1ccncc1,1%,1.5,1.1,-2.0,2,-33,8,0
CCOC(=O)C1CCN(S(=O)(=O)c2ccc(Cl)nc2)CC1,5%,-1.9,0.9,3.6,-4,-10,-4,-1
CCc1ccc(NC(=O)CS(=O)CC(=O)NCCCc2ccccc2)cc1 (stereo not drawn),-3%,5.0,1.0,-2.1,-2,-3.9,-22,-5
O=C(NCC1CCCO1)c1cc2cc(Cl)ccc2[nH]1 (stereo not drawn),-4%,1.4,0.6,-3.9,-4,0.7,1,15
COc1ccc(-c2csc(NC(=S)NC(=O)c3ccco3)n2)cc1Br,-4%,7.2,-0.1,-1.6,13,-2.4,-8,1
CCn1c(COc2ccccc2C)nnc1SCC(=O)N1CCN(c2ccccc2)CC1,4%,-1.6,-0.4,-2.2,9,nt,2,5
Cc1ccn2cc(-c3cnoc3C)nc2c1,-4%,1.9,-4.9,1.7,5,nt,12,-6
CN(C)S(=O)(=O)N(CC(=O)Nc1ccccc1)c1ccccc1,30%,-2.5,-0.4,nt,-1,nt,nt,-3
O=C(CC1NCCNC1=O)Nc1cc(Cl)cc(Cl)c1 (stereo not drawn),28%,2.5,0.2,-0.6,-5,0.1,-16,-12
CCOC(=O)CCCC(=O)N1CCOCCOCCOCC1,1%,0.0,0.8,0.5,-4,-2.3,-8,-3
COc1cc(OC)c(C2=NOC(C(=O)N3CCN(C(=O)c4ccco4)CC3)C2)cc1Cl (stereo not drawn),-1%,0.9,0.8,4.8,-2,-1.1,-8,-1
CC(=O)NC(Cc1ccc(F)cc1)C(=O)NC1CCN(c2nnnn2-c2ccccc2)CC1 (stereo not drawn),5%,-7.8,0.7,-4.5,nt,nt,-1,-4
COc1ccc(-n2nnnc2SCC(=O)c2ccc3c(c2)OCCO3)c(OC)c1,-53%,6.6,0.1,-6.2,0,2.5,7,-8
Cc1ccc(N(C(=O)Cc2c[nH]c3ccccc23)C(C(=O)NC2CCCCC2)c2ccco2)cc1 (stereo not drawn),7%&-1%,-3.3,1.0,-0.8,-14,nt,38,29
Cc1cccc(N=CC=C2OC(C)(C)C(C)(C)O2)c1,-7%,nt,0.2,0.8,-6,3.7,11,15
COC(=O)c1c(NC(=O)CN2CCN(S(=O)(=O)c3ccccc3[N+](=O)[O-])CC2)sc2c1CCC(C)C2 (stereo not drawn),8%,-7.2,-0.1,-1.8,11,nt,44,5
OCC1(Cc2ccccc2F)CCCN(Cc2c(F)ccc(F)c2F)C1 (stereo not drawn),nt,-4.7,0.7,1.0,-8,1.9,9,-7
CCOc1ccc(C2C(C(=O)O)c3ccccc3C(=O)N2CCN2CCOCC2)cc1 (stereo not drawn),5%,0.9,-1.2,-3.1,nt,nt,-5,1
Cn1c(=O)c2c(nc(CN3CCCCC3)n2CCc2ccccc2)n(C)c1=O,4%,4.1,0.4,4.3,-3,nt,nt,1
CC(O)[C@H]1CN=C(N)N1CC1CCCCC1 (stereo partly drawn),nt,3.0,-0.2,?,-3,-3.1,-6,-1
CCOC(=O)C1=c2s/c(=C\c3cccnc3)c(=O)n2C(N)=C(C(=O)OC)C1c1cccnc1 (stereo not drawn),-8%,-5.2,-0.3,-1.8,-4,nt,9,8
CC(=O)c1c(C)[nH]c(C(=O)Nc2ccc(C)c(S(=O)(=O)N(C)C)c2)c1C,-7%,-1.7,1.7,-0.1,0,4.0,-18,42
Fc1ccc(C2=Nc3cccc4cccc(c34)N2)cc1,-1%,-0.4,-0.1,4.0,-4,1.8,-28,-14
Cc1nnc(SCC(=O)NCc2ccccc2)n1-c1ccccc1,-2%,1.0,0.2,3.2,-1,nt,0,nt
CC(C)C[C@@H](CN=[N+]=[N-])N1CCN(CC(C)C)CCC1=O,nt,-13,0.4,5.8,-2,-7.0,5,-7
Cc1ccc(NC(=S)N(CCN(C)C)C(C)c2cccnc2)c(C)c1 (stereo not drawn),0%,1.4,0.8,-2.4,-5,0.0,21,5
CCN(c1cccc(C)c1)S(=O)(=O)c1nnc(NC(=O)c2ccco2)s1,nt,1.3,0.4,0.9,1,-0.3,-17,-8
COc1ccc(-c2sc3ccccc3c2/C=C/c2ccc(N)cc2)cc1,nt,3.6,1.4,nt,0,12,nt,nt
CC1(C)c2[nH]c3ccccc3c2C[C@@H]2C(=O)N(Cc3ccc(F)cc3)C(=O)N21,nt,4.8,0.7,-2.1,3,4.3,21,18
O=C(CN1C(=O)C(=O)N(Cc2ccccc2)C1=O)Nc1ccc(OC(F)F)cc1,1%,2.3,-0.1,nt,-4,-0.5,nt,nt
CCN(CC)c1ccc(NC(=O)c2cncc(Br)c2)cc1,2%,3.2,0.1,-1.8,3,nt,4,-9
O=C(CNC(=O)c1ccccc1)NCCO,nt,-3.3,-1.0,3.1,-3,-2.7,-26,-9
O=C(O)c1cc(-c2ccc(Cl)cc2)n[nH]1,2%,11,-0.7,-4.3,-6,nt,-14,-14
Cc1ccc(-c2n[nH]c(=S)nc2-c2ccc(C)cc2)cc1,-4%,-0.5,-0.6,-2.3,-5,1.8,14,8
CC(=O)c1ccc(-n2cc(C#N)c(=O)[nH]c2=O)cc1,nt,-3.9,0.7,5.5,nt,-0.7,-4,-4
COc1ccc(-c2ccc3nnc(SCC(N)=O)n3n2)cc1,0%,7.3,-0.1,-1.0,2,2.7,2,-4
O=C(NCCc1ccccc1)c1ccc(Cl)c([N+](=O)[O-])c1,8%,-1.9,-0.3,1.1,-6,nt,5,-17

# Additional records
smiles,Vif TR-FRET,LANA-H2B inh,Bfl-1 A1 inh,RanGTP-Imp inh,Beta cell apopt,AF4-AF9 inh,T cruzi inh,Calb FLC
COc1ccc(-c2csc(NC(C)c3nc4cc(C(=O)NCCCO)ccc4n3Cc3ccc(C)cc3)n2)cc1 (stereo not drawn),nt,-5.0,-0.6,-7.2,-2,-0.1,9,11
O=[N+]([O-])c1cccc(-c2ccc(/C=N/n3c(-c4ccccc4)n[nH]c3=S)o2)c1,29%,5.2,?,-3.8,27,-2.9,15,2
CCOC(=O)c1c(-c2ccccc2)csc1NC(=O)/C(C#N)=C/c1ccc(OC)c(OC)c1,-7%,2.2,0.2,-1.5,-9,nt,-19,-3
O=S(=O)(c1cccc(S(=O)(=O)N2CCCC2)c1)c1cccc(S(=O)(=O)N2CCCC2)c1,1%,2.8,-0.3,-3.4,nt,4.6,4,20
CCOC(=O)c1ccc(S(=O)(=O)N2CCN(C/C=C/c3ccccc3)CC2)cc1,nt,3.6,-0.5,nt,0,5.0,nt,nt
Cc1ccc(C)c(NC(=S)N2CCC(NC(=O)c3ccccc3)CC2)c1,nt,1.3,0.8,0.8,4,-3.2,-6,-3
O=C(CN1C(=O)COc2ccccc21)N1CCc2ccccc2C1,nt,-2.7,1.0,-2.8,4,nt,-4,-9
O=C(CCCC1=NS(=O)(=O)c2ccccc2N1)N1CCN(c2ccc([N+](=O)[O-])cc2)CC1,nt,-0.7,-0.7,2.0,1,-3.1,-4,11
O=C(O)c1nc(-c2ccccc2)n(-c2ccc(Cl)cc2)n1,6%,-17,-0.1,-0.9,0,nt,-28,-1
CCO[C@H]1OC(C(=O)NC2CC2)=C[C@@H](c2ccc3c(c2)OCO3)[C@@H]1CCCO,12%,1.9,0.1,3.9,-1,-3.5,-7,-5
CC(C)N1CCN(Cc2cccn2-c2ccccn2)CC1CCO (stereo not drawn),?,-0.4,1.0,8.6,-3,1.0,-14,-3
COCCNC(=O)NC(=O)CSc1nc(C)c(C)c(C)n1,-2%,-2.4,0.8,1.3,-4,-3.9,0,-1
CC1(C(=O)OCc2cc(=O)n3cc(Br)ccc3n2)CC1(Cl)Cl (stereo not drawn),nt,0.8,0.0,7.7,-1,3.6,4,24
CCCCN(C(=O)CSc1nnnn1C)c1c(N)n(Cc2ccccc2)c(=O)[nH]c1=O,?,5.2,0.0,0.5,-5,6.5,8,-3
O=C(NCc1ccccc1)Nc1cccc2ccccc12,-2%,1.9,1.3,-4.0,-1,0.2,-4,7
COCCn1c(Cc2ccccc2)nnc1SCC(=O)NC(C)C,29%,3.2,-0.3,1.7,1,nt,0,-2
